Cruzain inh Det – qHTS Assay for Promiscuous and Specific Inhibitors of Cruzain (with detergent) | 200,000 compounds, 0.43% hits | Potency, µM, inactives show max response, negative = inhibition, usual class: inhibitors | AID 1478, 2009 | Cruzipain (Trypanosoma cruzi), P25779 | purified cruzain, Z-FR-AMC fluorescence, 0.01% Triton;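 further: plate controls were neutral wells for no effect and buffer without enzyme for full effect; nearly all actives have a fitted effect of over 40% in size; top concentration of the series not given in the record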
Target sequence (P25779 123-467 limits assumed): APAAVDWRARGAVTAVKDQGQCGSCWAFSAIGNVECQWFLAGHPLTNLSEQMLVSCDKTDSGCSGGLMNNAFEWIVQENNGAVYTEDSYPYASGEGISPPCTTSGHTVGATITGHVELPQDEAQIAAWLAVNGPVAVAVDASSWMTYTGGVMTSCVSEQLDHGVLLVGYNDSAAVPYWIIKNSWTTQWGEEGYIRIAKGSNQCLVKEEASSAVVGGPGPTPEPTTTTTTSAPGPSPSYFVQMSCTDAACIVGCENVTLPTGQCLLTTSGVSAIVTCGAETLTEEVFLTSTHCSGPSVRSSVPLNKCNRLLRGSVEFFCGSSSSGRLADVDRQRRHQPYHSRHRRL
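Purified cruzain (1.5 nM final) was preincubated with compounds for 15 min at room temperature in 100 mM sodium acetate pH 5.5, 5 mM DTT, 0.01% Triton X-100. Reaction started with 2 uM Z-FR-AMC; AMC fluorescence change over 60 s gave activity.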
Marburg entry inh – qHTS for inhibitors of binding or entry into cells for Marburg Virus | AID 540276, 2011 | 300,000 compounds, 1.8% hits | Potency, µM (doses to about 37.8 µM), for the others: at the highest dose activity change, negative = inhibition, hits mostly inhibitors | Marburg virus pseudotyped entry inhibition, cell reporter; control for the full effect not named in the record; about a third of the inactives were read at about 46 µM; active = well fitted inhibition curve with a large enough effect; inconclusive = small, poorly fitted or top-dose-only effect, or effect the other way; inactive = flat fitted curve, though single readings scatter; tested in HEK293 cells; about a fifth of its hits are not listed in these tables; further: on the % scale 0 is the no-effect control and ±100 the full control effect; luciferase read-out
Cruzain inh noDet – qHTS Assay for Promiscuous and Specific Inhibitors of Cruzain (without detergent). Cruzipain (Trypanosoma cruzi), P25779. purified cruzain, Z-FR-AMC fluorescence, no detergent. Potency, µM, inactives show max response, negative = inhibition, most hits filed as inhibitors. 200,000 compounds, 2.3% hits. AID 1476, 2009;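 further: plate controls were enzyme without inhibitor for no effect and buffer without enzyme for full effect; nearly all actives have a fitted effect of over 40% in size; top concentration of the series not given in the record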
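Purified cruzain at 1.5 nM, pre-incubated 15 min with compound at room temperature in 100 mM sodium acetate pH 5.5, 5 mM DTT, 0.00005% Triton X-100. Reaction started with 2 uM Z-FR-AMC; AMC fluorescence increase over 60 s gives rate.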
StopGo reporter – High Throughput Screening for Foot and Mouth Disease Virus Antivirals. human cells with a luciferase reporter of 2A StopGo recoding; control for the full effect not named in the record. Potency, µM (doses to about 57.9 µM), for the others: at the highest dose signal change, negative = less light. 410,000 compounds, 1.2% hits; active = well fitted falling curve with a large enough effect; inconclusive = small, poorly fitted or top-dose-only effect; inactive = no such curve, though single readings can be large or run the other way; tested in HEK293T cells; further: on the % scale 0 is the no-effect control and ±100 the full control effect; nearly all actives have a fitted effect of over 45% in size; luciferase light after 4 h
NS1 inh – qHTS Assay for Inhibitors of Influenza NS1 Protein Function. S. cerevisiae slowed by influenza A NS1, growth recovery by OD600. Potency, µM (doses to about 46.1 µM), without a hit: at the highest dose activity, positive = more growth. 270,000 compounds, 0.4% hits. AID 2326, 2010; active means well fitted rising curve with a large enough effect; inconclusive means small, poorly fitted or top-dose-only effect; inactive means no such curve, though single readings can be large or run the other way; further: nearly all actives have a fitted effect of over 50% in size
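S. cerevisiae expressing influenza A NS1, grown in glucose, washed, then diluted 1:100 into pH 6.0 -URA galactose medium with 23 nl compound. Growth recovery read as OD600; NS1-free strain serves as control.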
RE007 growth inh – qHTS Assay for Inhibitors of the HIV-1 protein Vpr. 360,000 compounds, 0.21% hits. AID 651644, 2012. Potency, µM (doses to about 92.2 µM), without a hit: at the top dose activity change, negative = less growth. S. pombe RE007 Vpr strain, BacTiter-Glo ATP luminescence, 24 h; control for the full effect not named in the record; active = well fitted falling curve with a large enough effect; inconclusive = small, poorly fitted or top-dose-only effect; inactive = no such curve, though single readings can be large or run the other way;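 further: on the % scale 0 is the no-effect control and ±100 the full control effect; nearly all actives have a fitted effect of over 50% in size; the assay follows cell death caused by Vpr and the record does not say whether a fall means rescue or toxicity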
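Fission yeast strain RE007, carrying one chromosomally integrated HIV-1 vpr copy, was seeded at OD 0.01 in PMG+AL medium with 23 nL pinned compound. After 24 h at 30 °C and 99% humidity, viability was read by BacTiter-Glo luminescence.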
SARS PLpro yeast – qHTS of Yeast-based Assay for SARS-CoV PLP | S. cerevisiae expressing SARS-CoV PLpro, growth rescue; control for the full effect not named in the record | Potency, µM (titrated, usually from 32.9 µM), without a hit: at the highest dose activity, positive = growth rescue | 330,000 compounds, 0.19% hits | AID 485353, 2010; active means well fitted rising curve with a large enough effect; inconclusive means small, poorly fitted or top-dose-only effect; inactive means no such curve, though single readings can be large or run the other way; further: 0% is about no effect; nearly all actives have a fitted effect of over 55% in size; growth read by luminescence after 48 h
Lassa entry inh – qHTS for Inhibitors of binding or entry into cells for Lassa Virus | Lassa virus pseudotype entry inhibition, cell reporter; control for the full effect not named in the record | Potency, µM (highest dose often 37.9 µM), inactives show at the highest dose activity change, negative = inhibition, actives largely listed as inhibitors | 300,000 compounds, 1.2% hits; active means well fitted inhibition curve with a large enough effect; inconclusive means small, poorly fitted or top-dose-only effect, or effect the other way; inactive means flat fitted curve, though single readings scatter; tested in HEK293 cells; further: on the % scale 0 is the no-effect control and ±100 the full control effect; nearly all actives have a fitted effect of over 50% in size; luciferase read-out
An asterisk follows results filed as active; ? = inconclusive; / = not tested or not shown; & = joins results of further samples; [ ] = another dose, or the depositor's remark. Unless noted, the call rests on the fitted dose curve; in most records, active means well fitted curve in the direction sought with a large enough effect; inconclusive means small, poorly fitted or top-dose-only effect, or another doubt; inactive means no such curve, though single readings can be large; an effect the other way counts as inactive or inconclusive. Potency means the concentration at half of the fitted maximal effect. Hits appear at their usual frequency, and some 4.7% of all compounds hit somewhere here.

SMILES	Cruzain inh Det	Marburg entry inh	Cruzain inh noDet	StopGo reporter	NS1 inh	RE007 growth inh	SARS PLpro yeast	Lassa entry inh
O=C(O)CCCC(=O)Nc1nc2n(n1)C(c1ccc(F)cc1)CC(c1ccc(Cl)cc1)N2 (stereo unspecified)	2.0%	-1%	?	-12%	15%	-8%	1%	4%
O=C(O)C1C2CC(C(Br)C2Br)C1C(=O)O (stereo unspecified)	/	26%	/	-15%	/	3%	/	0%
CCOc1ccc(CCNC(=O)C2CCC(CNS(=O)(=O)c3ccc(Cl)cc3)CC2)cc1OCC (stereo unspecified)	-0.1%	/	7%	-8%	/	/	/	1%[46.1 µM]
Cc1ccc(N2CCN(S(=O)(=O)c3ccc(F)c(C(=O)Nc4ccc(Cl)cc4Cl)c3)CC2C)cc1 (stereo unspecified)	0.7%	/	-9%	-4%	/	/	/	29%[46.1 µM]
Cc1ccc(Cl)cc1N1CCN(C(=O)C(C)n2ncn3cccc3c2=O)CC1 (stereo unspecified)	-1.4%	18%[46.1 µM]	1%	?	-1%	-5%	-1%	9%[46.1 µM]
c1ccc2c(c1)OCC(c1csc3ncnc(N4CCCCC4)c13)O2 (stereo unspecified)	-6.8%	?	3%	32µM*	-4%	0%	-45%	-18%
CN(C)c1cccc(C(=O)OCC(=O)Nc2nccs2)c1	-2.9%	?	-10%	46%[activator]	12%	-3%	10%	23%
CSc1nnc(SCc2nc3sc(C(=O)O)c(C)c3c(=O)[nH]2)s1	/	-18%[46.1 µM]	/	8%	1%	1%	-1%	1%
O=C(Nc1ccccc1F)c1ccc(Cn2cc(Cl)cn2)cc1	/	1%[46.1 µM]	/	16%	-6%	-6%	-1%	-6%[46.1 µM]
CC1Cc2ccccc2N1C(=O)CN1C(=O)NC(C)(c2ccc3c(c2)OCCO3)C1=O (stereo unspecified)	-6.8%	-7%	-8%	-25%	-14%	1%	7%	9%
O=C(Cn1cc(C(=O)C(F)(F)F)c2ccccc21)N1CCOCC1	/	26%[46.1 µM]	/	-6%	7%	-11%	0%	0%
COc1ccc(-c2noc(N3CCC(C(=O)Nc4ccccc4F)CC3)n2)cc1	/	/	/	?	8%	7%	-5%	/
CCOc1ccc2nc(SCC3CC3(Cl)Cl)[nH]c2c1 (stereo unspecified)	/	?	/	50%[activator]	-4%	-18%	-2%	?
Cc1cc(-c2nnc(SCC(=O)Nc3ccc(Br)cc3F)n2N)n[nH]1	/	12%[46.1 µM]	/	-5%	-7%	13%	-2%	-9%[46.1 µM]
CCOC(=O)c1cc2sccc2n1CC(=O)C(C)(C)C	/	-10%[46.1 µM]	/	-17%	0%	0%	-1%	-28%
Cc1cccc(C(=O)N=C2SC3CS(=O)(=O)CC3N2c2ccccc2)c1 (stereo unspecified)	/	-10%	/	?	/	-10%	3%	-26%
Cc1nc2cc(NC(=O)c3ccc(Cl)cc3)ccc2n1C	/	/	/	-29%	?	-26%	5%	/
CC1CCN(C(=O)c2cnn(-c3ccc(Cl)cc3)c2C2CCN(C(=O)OC(C)(C)C)CC2)CC1	-1.3%	/	-4%	-12%	/	/	/	-19%[46.1 µM]
CCn1cc(/C=N/NC(=O)c2ccc(C#N)cc2F)c2ccccc21	-2.3%	9%	-9%	-3%	-9%	-8%	0%	-25%[14.3 µM]
COc1cc2c(cc1NC(=O)CN1C(=O)NC3(CCc4ccccc43)C1=O)oc1ccccc12 (stereo unspecified)	-3.6%	12µM*	?	0%	?	3%	-14%	?

Compound profiles, from the list above. Order of values: Cruzain inh Det, Marburg entry inh, Cruzain inh noDet, StopGo reporter, NS1 inh, RE007 growth inh, SARS PLpro yeast, Lassa entry inh
Cc1cccc(C(=O)N=C2SC3CS(=O)(=O)CC3N2c2ccccc2)c1 (stereo unspecified) reads /, -10%, /, ?, /, -10%, 3%, -26%
Cc1ccc(N2CCN(S(=O)(=O)c3ccc(F)c(C(=O)Nc4ccc(Cl)cc4Cl)c3)CC2C)cc1 (stereo unspecified) reads 0.7%, /, -9%, -4%, /, /, /, 29%[46.1 µM]
c1ccc2c(c1)OCC(c1csc3ncnc(N4CCCCC4)c13)O2 (stereo unspecified) reads -6.8%, ?, 3%, 32µM*, -4%, 0%, -45%, -18%

Further entries follow.
SMILES	Cruzain inh Det	Marburg entry inh	Cruzain inh noDet	StopGo reporter	NS1 inh	RE007 growth inh	SARS PLpro yeast	Lassa entry inh
COc1cccc(C(=O)Oc2ccc(N3C(=O)CCC3=O)c(C)c2)c1	/	-10%[46.1 µM]	/	-3%	2%	-2%	0%	-2%[46.1 µM]
CC(=O)c1c(C)[nH]c(C(=O)COC(=O)CCSc2ccccc2)c1C	16µM*	-2%	?	9%	9%	2%	-36%	-11%
Cc1ccc(C2(C(F)(F)F)N=C3Sc4cc(C)ccc4N3C(=O)N2)cc1 (stereo unspecified)	-1.1%	0%	-14%	/	18%	/	-9%	/
Cc1ccc(-c2nc3cc(NC(=O)c4cc(Br)ccc4Cl)ccc3o2)cc1	-0.7%	/	-26%	-18%	/	/	/	-12%[46.1 µM]
Cc1ccc(NC(=S)N(CCN(C)C)C(C)c2ccco2)cc1C (stereo unspecified)	-2.4%	2%	21%	7%	7%	1%	12%	?
CC1(C)CC2CC(C)(CN2C(=O)COC(=O)CNC(=O)c2ccc(Cl)c(Cl)c2)C1 (stereo unspecified)	7.9µM*	-2%	7.9µM*	-19%	-41%	-12%	11%	2%
COc1cccc(CN2CC(C(=O)N3CCCC3)CCC2=O)c1 (stereo unspecified)	/	/	/	-9%	6%	1%	-6%	/
Cc1cccc(NC(=O)C2CCN(C(=O)c3ccc(Cl)cc3)CC2)n1	/	5%	/	-23%	/	5%	7%	-12%
COc1cccc(N2CCN(Cc3nc(N)nc(Nc4ccccc4OC)n3)CC2)c1	2.2%	-10%&-10%	-4%	-18%	-2%	-9%	-2%	-17%
CCOc1ccc(CC(=O)N2CCN(c3ccc(N4CCOCC4)nn3)CC2)cc1OCC	0.2%	5%	-3%	0%	-6%	-1%	1%	/
CSCCC(NC(=O)c1ccc(Cl)cc1)C(=O)OCC(=O)N1CCCC1=O (stereo unspecified)	/	-26%	/	14%	/	-15%	-4%	?
O=C(c1ccccc1)C(Cc1ccccc1)N1CCOCC1 (stereo unspecified)	/	5%	/	-14%	/	7%	/	16%[46.1 µM]
CCc1ccc(OCC2c3cc(OC)c(OC)cc3CCN2C(=S)NC)cc1 (stereo unspecified)	/	?	/	-23%	/	-1%	0%	?
COc1ccc(-c2nc3ncnn3cc2C)cc1F	/	-11%[46.1 µM]	/	-19%	-3%	0%	1%	-26%
Cc1cc(/C=C2/SC(=O)N(CC(=O)N3CCOCC3)C2=O)c(C)n1-c1ccccc1F	-4.2%	/	?	27%	9%	-8%	-4%	/
C/C=C/C(=O)OCC(=O)Nc1cccc(Br)c1	/	-8%[46.1 µM]	/	-17%	/	-6%	-6%	-14%
CCC(C)Cn1c(/C=C/c2ccccc2)nc2ccccc21 (stereo unspecified)	-21%	?	4%	-2%	/	/	/	1%[46.1 µM]
COc1ccc(-c2nc3ccc(C(=O)NCC(OC)OC)cc3nc2-c2ccc(OC)c(OC)c2)cc1OC	/	/	/	-25%	-4%	4%	1%	/
COc1ccc(NC(=O)COc2ccc(/C=N/n3c(C)nnc3C)cc2OC)cc1	1.9%	25%	9%	29%	-17%	3%	5%	-3%
O=c1cnnc(N/N=C/c2ccc3c(c2)OCO3)[nH]1	/	/	/	-2%	-2%	1%	2%	/
CCOC(=O)c1ccc(NC2SC(=O)N(Cc3cccc(C(=O)O)c3)C2=O)cc1 (stereo unspecified)	-7.3%	12%[46.1 µM]	6%	0%	/	/	/	-18%[46.1 µM]
CCN(CC)C(=O)C(Sc1nnnn1-c1ccc(O)cc1)c1ccccc1 (stereo unspecified)	/	-12%	/	14%	10%	-9%	-1%	?
C=CCn1c(O)c(C(C)=Nc2ccc(NC(C)=O)cc2)c(=O)[nH]c1=O	-0.7%	-6%	-1%	-7%	-1%	4%	0%	-23%
CCCOc1ccc(C2NC(=O)NC2=O)cc1 (stereo unspecified)	-1.4%	-14%	-2%	3%	11%	5%	10%	10%
CC(C)(C)N(Cc1ccc2c(c1)OCO2)C(=O)/C=C\S(=O)c1ccccc1 (stereo unspecified)	/	?	/	-22%	/	34%	/	?
COc1ccc(CCNC(=O)CCOc2cc(C)ccc2C)cc1OC	/	/	/	-4%	-13%	-2%	2%	/
CCn1c(SCC(=O)Nc2ccc(NC(=O)c3cccs3)cc2)nnc1-c1cccnc1	-0.5%	-2%&-2%[46.1 µM]	?	-18%	-6%	30%	9%	16%
O=C(NCCc1ccc(F)cc1)C(=O)NCC(c1cccs1)S(=O)(=O)c1ccc(Cl)cc1 (stereo unspecified)	-1.9%	/	2%	?	/	/	/	?
Cc1cccc(NC(=O)CO/N=C/c2ccc3c(c2)OCO3)c1	-6.1%	?	-6%	-9%	-19%	-18%	-2%	-24%
COc1ccc(N2CCN(C(=O)CCn3c(=O)c4cccn4c4cccnc43)CC2)cc1	-2.0%	/	2%	-8%	/	/	/	16%[46.1 µM]
Cc1cccc2cc(CN(Cc3cccnc3)C(=O)c3ccccc3F)c(Cl)nc12	-6.1%	?	13%	/	-26%	3%	-7%	-18%
Cc1ccc(O)c(/C=N/NC(=O)COc2ccc3c(C)cc(=O)oc3c2)c1	/	?	/	-6%	2%	3%	1%	?
COc1ccc(NC(=O)CC2C(=O)N(c3cccc(OC)c3)C(=O)N2Cc2cccnc2)cc1 (stereo unspecified)	-1.6%	/	-1%	-6%	/	/	/	0%[46.1 µM]
